TRPML1 agonist = agonists of human TRPML1 channel | Q9GZU1 | TRPML1-expressing cells, Ca2+ dye fluorescence, FDSS; host cell line not named in the record; reference of the full effect not given here | activation, % (no concentration beside the values) | actives 0.12% (n = 410,000) | AID 624414; in the data active = activation above about 50%; inconclusive = about 30% to 50%; inactive = below about 30%; note: 0% is about no effect; the text of the record puts the active cut at 80%
Target sequence (Q9GZU1 whole entry, looked up): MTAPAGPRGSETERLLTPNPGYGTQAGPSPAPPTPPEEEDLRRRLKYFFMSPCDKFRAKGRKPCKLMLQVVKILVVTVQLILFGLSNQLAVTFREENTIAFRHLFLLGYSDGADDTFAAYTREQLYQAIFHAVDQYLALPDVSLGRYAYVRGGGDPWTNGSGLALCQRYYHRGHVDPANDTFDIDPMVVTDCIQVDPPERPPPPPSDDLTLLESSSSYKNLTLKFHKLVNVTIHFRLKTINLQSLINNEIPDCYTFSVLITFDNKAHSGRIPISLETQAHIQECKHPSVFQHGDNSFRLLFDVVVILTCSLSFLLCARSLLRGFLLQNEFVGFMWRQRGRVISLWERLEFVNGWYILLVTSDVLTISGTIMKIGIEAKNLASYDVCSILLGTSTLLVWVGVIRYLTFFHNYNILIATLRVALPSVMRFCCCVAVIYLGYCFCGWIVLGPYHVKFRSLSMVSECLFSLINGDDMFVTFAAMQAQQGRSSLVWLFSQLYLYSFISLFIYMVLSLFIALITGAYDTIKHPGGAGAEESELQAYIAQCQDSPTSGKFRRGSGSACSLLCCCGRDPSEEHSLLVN
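Cells: TRPML1-DL, 1X Tet inducer, ~16 h at 37 degrees C/5% CO2. Dye: ABD Ca8 no-wash + quencher, 45-90 min RT. Read: 10 s baseline, compound add, 110 s agonist phase; 54-4 EC80 (4uM final), 110 s antagonist phase.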
PINK1 expr mod = modulators of PINK1 expression | Potency, µM (top dose mostly 76.6 µM), for the others: top-dose activation (PINK1 increase), usual class: activators | PINK1 immunofluorescence, high-content cytometry, 24 h | actives 0.2% (n = 410,000); active = well fitted activation curve with a large enough effect; inconclusive = small, poorly fitted or top-dose-only effect; inactive = flat fitted curve, though single readings scatter; cell line not stated here;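 note: potency is the fitted concentration of half-maximal effect; % of control where 0% means no effect; nearly all actives have a fitted effect of over 65% in size; a mitochondrial uncoupler was the plate control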
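PINK1 protein, normally rapidly degraded, was detected by immunofluorescence after 24 hour compound treatment of a stable cell line. Titration data (5 concentrations) came from laser-scanning cytometry, with CCCP-treated wells as controls.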
Six1-Eya2 inh = Six1/Eya2 interaction inhibition; Q15475+O00167; AlphaScreen GST-Six1/His-Eya2 binding, biochemical; hits give low values; control for the full effect not named in the record; AID 651725; activity change, % (no concentration beside the values); actives 0.56% (n = 360,000); in the data active = activity change below about -65%; inconclusive = about -30% to -65%; inactive = above about -30%; note: % is set by controls: 0 for no effect and ±100 for the full control effect; compound concentration not given in the record
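Homogeneous AlphaScreen proximity assay pairing GST-Six1 with His-tagged Eya2 (added as 5X mix: 250 nM and 500 nM) in 50 mM Tris pH 8.0, 300 mM NaCl, 1 mM TCEP. Glutathione donor and nickel acceptor beads; 1 h, 37 °C, dark.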
CtBP-E1A inh = blocks the CtBP interaction with E1A; AlphaScreen GST-E1A/His-CtBP binding, 1536-well; hits give low values; control for the full effect not named in the record; activity change, % (concentration not given with the values); actives 0.49% (n = 340,000); in the data active means activity change below about -65%; inconclusive means about -30% to -65%; inactive means above about -30%; note: % is set by controls: 0 for no effect and ±100 for the full control effect
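In 5 uL wells, 23 nL compound meets equimolar GST-E1A and His-CtBP (5X stock 125 nM each) for 2 h, 37 °C. Beads (5X, 50 ug/mL) then 1 h, 37 °C, dark.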
TRPML1 blocker = inhibitors of human TRPML1 channel | TRPML1-inducible cells, Ca2+ dye fluorescence, FDSS; hits give low values; inhibition of EC80 agonist-evoked calcium signal | activity change, negative = inhibition, % (concentration not given with the values) | actives 0.02% (n = 390,000); in the data active means activity change below about -50%; inconclusive means about -30% to -50%; inactive means above about -30%;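 note: stimulus is agonist 54-4 at its EC80 concentration; % is set by controls: 0 for no effect and ±100 for the full control effect; compound concentration not given in the record; the text of the record puts the active cut at -80%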
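Calcium fluorescence in TRPML1-DL cells induced overnight with Tet: a 110 s read after compound pin addition, then a 110 s antagonist read after challenge with 54-4 at 4 uM final (EC80).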
D2 agonist = human D2 receptor agonism in beta-arrestin assay. DiscoveRx PathHunter D2 beta-arrestin, luminescence, 90 min; 100% = 57 uM dopamine signal. activation, % (test concentration not listed). AID 624465. P14416. actives 0.084% (n = 360,000); in the data active = activation above about 40%; inconclusive = about 15% to 40%; inactive = below about 15%; note: compound concentration not given in the record; the text of the record calls up to 30% inactive
Target sequence (P14416 whole entry, looked up): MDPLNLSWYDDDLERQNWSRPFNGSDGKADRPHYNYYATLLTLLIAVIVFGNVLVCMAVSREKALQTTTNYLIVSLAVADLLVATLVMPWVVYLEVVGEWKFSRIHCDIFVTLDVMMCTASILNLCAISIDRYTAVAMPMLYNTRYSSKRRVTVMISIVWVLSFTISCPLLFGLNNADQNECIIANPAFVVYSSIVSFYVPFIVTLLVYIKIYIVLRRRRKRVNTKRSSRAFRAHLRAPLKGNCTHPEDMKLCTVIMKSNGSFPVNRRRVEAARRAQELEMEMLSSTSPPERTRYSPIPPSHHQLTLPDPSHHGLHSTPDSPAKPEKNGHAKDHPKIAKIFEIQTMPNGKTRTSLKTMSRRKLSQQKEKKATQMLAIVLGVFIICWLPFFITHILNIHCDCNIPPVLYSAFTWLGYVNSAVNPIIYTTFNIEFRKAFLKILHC
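Agonist mode: compounds alone added to overnight-plated D2 PathHunter cells for 90 min at 37 C, with 57 uM final dopamine (EC100) defining full response. Beta-arrestin recruitment detected by chemiluminescent reagent, read after 1 h at ambient temperature.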
Numbers without * were called inactive; u = inconclusive; x = not tested or not shown; & = joins results of further samples; [ ] = remark or other dose. This is a random part of the collection, and some 1% of all compounds hit somewhere here.

item	structure	D2 agonist	Six1-Eya2 inh	CtBP-E1A inh
1	O=C(O)COc1ccccc1/C=N/NC(=O)Cc1ccccc1	-3.1	-1	7
2	CC(=O)Nc1ccc(-c2ccnc3c2CC(C(=O)NCc2ccccc2)O3)cc1 (stereo not drawn)	-2.3	7	-1
3	CC(=O)c1ccc(NC(=O)CSc2nnc3ccc(-c4ccc(Cl)cc4)nn23)cc1	x	x	x
4	Cc1ccc(S(=O)(=O)CC(=O)Nc2nc3c(C)cccc3s2)cc1	x	x	x
5	O=C(NCc1ccc(Cl)cc1)c1cnn2ccccc12	7.2	19	0
6	CC(C)OCCCNC(=O)C(=O)NCCCOC(C)C	-0.1	5	1
7	CCCCOc1ccc(C(=O)N/C(=C/C=C/c2ccccc2)C(=O)NCCO)cc1	-1.9	-3	-5
8	O=C(C1=CC=CN2CCS(=O)(=O)N=C12)N1CCN(c2cccc(Cl)c2)CC1	-3.1	9	x

item	TRPML1 blocker	TRPML1 agonist	PINK1 expr mod
1	23	0.0	0.9%
2	x	-0.4	5.5%
3	44	0.9	u
4	17	1.7	-0.7%
5	-13	1.0	0.7%
6	19	3.8	-0.3%
7	-4	-0.1	1.5%
8	-2	-1.0	6.1%

The list continues.
item	structure	D2 agonist	Six1-Eya2 inh	CtBP-E1A inh
9	CN(C)/C=C/c1c([N+](=O)[O-])c2ccc(O)cc2n1-c1ccccc1	0.6	-11	-9
10	COc1ccc(CC(=O)NCc2nnc(SCC(=O)Nc3nccs3)n2C)cc1	-19	-1	6
11	COC(=O)c1cc(OC)c(OC)cc1NCC(=O)Nc1cccc(C(F)(F)F)c1	-2.9	-14	-1
12	COc1ccc(OCCCC(=O)N(C)CC(=O)Nc2c(C)cccc2C)cc1	-7.6	0	8
13	COc1ccccc1N1CCN(C(=O)c2c(-c3ccccc3Cl)noc2C)CC1	-6.2	-17	-3
14	COc1nc(N)c(S(=O)(=O)c2ccc(C)cc2)cc1C#N	1.7	-11	-2
15	COc1ccc(NC(=O)c2sc3nc(-c4cc5ccc(OC)cc5oc4=O)[nH]c(=O)c3c2C)cc1	x	x	x
16	CC12CCC(C/C1=N\N=C1\NC(=O)/C(=C\c3ccc(Cl)cc3)S1)C2(C)C (stereo not drawn)	-0.3	-3	6

item	TRPML1 blocker	TRPML1 agonist	PINK1 expr mod
9	30	0.2	-1.8%
10	17	3.2	1.4%
11	4	0.1	u
12	-2	-0.7	-1.0%
13	-4	-0.2	5.0%
14	-7	0.1	-15%[38.3 µM]
15	4	-0.1	0.0%
16	-7	1.8	23%

Further records:
item	structure	D2 agonist	Six1-Eya2 inh	CtBP-E1A inh
17	CC(=O)c1cccc(NC(=O)Cn2ccn3nc(-c4ccccc4)cc3c2=O)c1	x	x	x
18	CCc1ccc(OCC(=O)N(Cc2ccccc2)C2CCS(=O)(=O)C2)cc1 (stereo not drawn)	-3.1	5	2
19	COc1ccc(CCNc2nc(C)nc3c2oc2ccccc23)cc1OC	2.3	u	u
20	NC(=O)c1ccc(-c2c(-c3ccccc3)sc3ccccc23)cc1	0.0	-3	5
21	O=C(CCc1ccccc1)C(=O)N1CCCC(C(=O)c2cccc(Cl)c2)C1 (stereo not drawn)	-2.2	16	13
22	O=C(NCCCN1CCOCC1)c1cc(-c2ccccc2)on1	-1.8	-15	0
23	COc1cc(OC)c(C2CC(=O)N3CN(C)CSC3=C2C#N)cc1OC (stereo not drawn)	-5.0	-3	-9
24	CCOc1ccccc1NC(=O)CCSc1nc2n[nH]c(C)c2c(=N)n1-c1ccccc1Cl	-0.8	-12	-14

item	TRPML1 blocker	TRPML1 agonist	PINK1 expr mod
17	-10	1.1	0.0%
18	0	-0.1	2.0%
19	-5	1.6	0.0%
20	-4	-0.1	1.9%
21	27	3.1	1.2%
22	-11	0.1	9.7%[38.3 µM]
23	42	-0.3	0.5%
24	28	1.8	7.2%[38.3 µM]

Next section
item	structure	D2 agonist	Six1-Eya2 inh	CtBP-E1A inh
25	C=C[C@@H]1c2ccccc2N(S(=O)(=O)c2ccc(C)cc2)[C@H](c2ccc(C(=O)OC)cc2)C1(C#N)C#N	-0.4	-4	1
26	C/C(=N\OCC(=O)Nc1ccc(OC(F)(F)F)cc1)c1ccc2c(c1)OCCO2	-1.9	6	-20
27	c1ccc(-c2nn3c(-c4ccco4)nnc3s2)nc1	-4.3	u	-16
28	O=C(Nc1ccc(S(=O)(=O)N2CCCC2)cc1)c1ccc(CN2CCOCC2)cc1	-1.0	-6	-2
29	O=C(COc1ccc(Cl)cc1Cl)NC(=S)N1CCCc2ccccc21	1.5	-23	-18
30	Cc1ccc(NC(=O)CN2C(=O)N/C(=C/c3ccc(N4CCOCC4)cc3)C2=O)cc1	0.4	6	-9
31	CC(C)Cn1c2c(c(O)c(C(=O)Nn3c(Cc4ccccc4)nc4ccccc4c3=O)c1=O)CCCC2	-4.2	6	-3
32	O=C1c2cccc3cccc(c23)C(=O)N1/N=C/c1ccc(O)cc1O	-3.4	-13	5

item	TRPML1 blocker	TRPML1 agonist	PINK1 expr mod
25	-2	-0.2	5.0%
26	-17	0.2	u
27	-22	1.4	1.6%
28	0	0.8	0.8%
29	9	-0.5	4.9%[38.3 µM]
30	12	-0.2	3.5%
31	19	-0.5	u
32	-1	0.5	3.4%

(next part)
item	structure	D2 agonist	Six1-Eya2 inh	CtBP-E1A inh
33	CCNC(=S)Nc1cccc(F)c1C	-21	-1	-2
34	COc1cccc(Nc2nc3ccccc3nc2-n2nc(C)cc2C)c1	-3.9	12	-3
35	CCOC(=O)N1CCC(NS(=O)(=O)c2ccc3c(c2)OCC(=O)N3)CC1	-1.8	3	-1
36	C=CC[n+]1ccc2ccccc2c1C	-2.0	7	1
37	COC(=O)c1cc(NC(=O)COC(=O)C2COc3ccccc3O2)cc(C(=O)OC)c1 (stereo not drawn)	2.0	-16	x
38	Cc1ccc2scc(N3CCc4ccccc4C3)c(=O)c2c1	x	x	x
39	CC1CCCN(Cc2c(O)ccc3c2O/C(=C\c2ccco2)C3=O)C1 (stereo not drawn)	0.4	u	0
40	COCCNC(=O)C(=O)NCC1OCCN1S(=O)(=O)c1cc(F)ccc1F (stereo not drawn)	-2.8	3	6

item	TRPML1 blocker	TRPML1 agonist	PINK1 expr mod
33	4	0.3	1.7%
34	7	-0.1	-0.8%
35	-13	2.7	-0.3%
36	0	-0.6	-0.7%
37	-6	-1.1	5.2%
38	4	0.1	-0.5%
39	-12	2.2	0.0%
40	-3	-0.7	-0.7%

The listing continues.
item	structure	D2 agonist	Six1-Eya2 inh	CtBP-E1A inh
41	COc1cccc(CNC(=O)CCCNC(=O)c2ccc(Cl)cc2)c1	1.3	0	0
42	CC(C)(c1ccccc1)c1ccc(OCc2ccc(C(=O)O)o2)cc1	-4.8	-10	-2
43	COC(=O)c1ccc(NC(=S)NC(=O)C2CCC2)cc1	-1.4	-3	-7
44	CCSc1nnc(NC(=O)c2cc(OC)c(OC)c(OC)c2)s1	-1.8	1	x
45	N#Cc1ccc(Nc2nc(-c3ccc(O)cc3O)cs2)cc1C(F)(F)F	10	u	-8
46	Cc1cccc(NC(=O)c2cc(S(=O)(=O)N3CCC4(CC3)OCCO4)ccc2F)c1	8.0	3	-12
47	Cc1ccc(C(=O)Nc2nnc(S(=O)(=O)N(C)Cc3ccc(F)cc3)s2)cc1	x	x	x
48	O=C(Nc1nnc(SCc2ccc(F)cc2)s1)c1ccccn1	-4.1	-90*	-95*

item	TRPML1 blocker	TRPML1 agonist	PINK1 expr mod
41	-2	0.5	-0.7%
42	-23	-0.2	u
43	11	-0.5	0.3%
44	-5	0.7	-0.7%
45	8	-0.5	2.3%
46	0&-8	0.6&1.8	1.0%&0.3%
47	29	1.5	-0.2%
48	3	-0.2	0.2%

(further entries)
item	structure	D2 agonist	Six1-Eya2 inh	CtBP-E1A inh
49	c1coc(-c2nnc(SCc3nc4ccccc4[nH]3)o2)c1	-0.4	-4	-7
50	Cc1nn2c(nc(N3CCCCC3)c3ccccc32)c1C=O	-3.9	-8	0
51	Cc1ccc(NC(=O)CSc2nnc3nc(C)cc(C)n23)cc1	x	x	x
52	O=C(O)c1ccc(C[n+]2c(-c3ccccc3)csc2Nc2ccccc2)cc1	1.9	2	-18
53	Cc1ccc(OCc2cc(C(=O)NCCn3cccn3)no2)cc1C	-1.4	0	3
54	O=C(CSCc1ccccc1F)NCc1ccccc1	-6.9	1	-24
55	CN(C)CCCNC(=O)CCc1nc2ccccc2c(=O)[nH]1	1.2	-1	0
56	CCOc1ccc(N2C(=O)C3ON(C)C(c4ccc([N+](=O)[O-])cc4)C3C2=O)cc1 (stereo not drawn)	-4.9	1	x

item	TRPML1 blocker	TRPML1 agonist	PINK1 expr mod
49	-13	1.7	4.6%[38.3 µM]
50	15	0.7	0.6%
51	3	0.1	-0.9%
52	-5	0.1	0.4%
53	-2	-2.0	0.1%
54	-10	-0.8	-0.8%
55	-16	0.1	0.6%
56	21	-0.6	1.4%

In the list so far, these contain a nitro group on carbon.
item	structure	D2 agonist	Six1-Eya2 inh	CtBP-E1A inh
9	CN(C)/C=C/c1c([N+](=O)[O-])c2ccc(O)cc2n1-c1ccccc1	0.6	-11	-9
56	CCOc1ccc(N2C(=O)C3ON(C)C(c4ccc([N+](=O)[O-])cc4)C3C2=O)cc1 (stereo not drawn)	-4.9	1	x

item	TRPML1 blocker	TRPML1 agonist	PINK1 expr mod
9	30	0.2	-1.8%
56	21	-0.6	1.4%

(cont.)
item	structure	D2 agonist	Six1-Eya2 inh	CtBP-E1A inh
57	CC(NC(=O)c1cccc(S(=O)(=O)N2CCc3ccccc32)c1)c1ccco1 (stereo not drawn)	-1.7	-8	-9
58	CCN(CC)CC(=O)Nc1ccc(/C(C)=N/NC2=NCCN2)cc1	1.4	-9	x
59	CCN(CC)C(=O)CC(c1ccc2c(c1)OCO2)c1c(O)cc(OC)cc1OC (stereo not drawn)	-4.5	-5	-1
60	COC(=O)C(C)Sc1nc(NCc2ccccc2)nc(N(C)C)n1 (stereo not drawn)	-0.1	4	-2
61	CCC(C)c1ccccc1N1CC(C(=O)N2CCN(S(=O)(=O)c3ccc(F)cc3)CC2)CC1=O (stereo not drawn)	-2.3	7	-15

item	TRPML1 blocker	TRPML1 agonist	PINK1 expr mod
57	-22	0.2	-0.4%
58	1	-0.1	-0.6%
59	-4&6	1.6&4.4	-1.1%
60	-1	-0.1	3.2%
61	-8	0.3	-0.3%
